Bead autofluor: compound fluorescence in toxin protease inhibitor counterscreen; AID 624483; fluorescence intensity (concentration not given with the values); compound autofluorescence counterscreen, microsphere flow cytometry; active compounds read high; 3.1% of 360,000 active;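 active means at least 3 SD above the mean of all compounds, about 16000 in these data; inconclusive means too few beads counted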;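 further: 100 nL of 1 mM stock went into each well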
RN4220 kill: growth inhibition of S. aureus RN4220, primary screen, OD600; 16 h; inhibition, % (no concentration beside the values); 0.33% of 330,000 active;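 active means z-score of -3 or lower and OD600 up to 0.18 on both plates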;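 further: plate controls were untreated cells for no effect and reference antibiotic for full effect; stock transfer was 100 nL into about 80 µL; one replicate is shown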
ugtP null kill: growth inhibition of ugtP-null S. aureus, primary screen, RN4220 ugtP deletion, OD600. 0.54% of 330,000 active. AID 1259309, 2017. 16 h; some inactives read as strong as hits. growth inhibition, % (test concentration not listed);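 active means z-score under -3 and OD600 up to 0.15 on both plates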;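 further: plate controls were untreated wells for no effect and antibiotic for full effect; wells of about 80 µL received 100 nL stock; the first replicate is given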
Mtb hypoxia rep: PubChem AID 1159583; 0.1% of 300,000 active; M. tuberculosis hypoxia-regulated fluorescent reporter, fluorescence; fluorescence inhibition, % (test concentration not listed);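 active means 35 to 45% if threefold the growth effect, above 45% if 1.5-fold the growth effect; inactive means the rest, general growth blockers included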;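 further: wells of about 50 µL received 100 nL stock; 0% = vehicle wells and 100% = reference inhibitor wells; whole bacteria with a GFP reporter of the hypoxia response; strong numbers were not always called active; many hits fall short of the cut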
PrP UTR inh: inhibition of PrP 5' UTR reporter expression; cell-based PrP 5' UTR mRNA reporter, plate reader; inhibition, % (concentration not given with the values); 0.35% of 340,000 active;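 active means every replicate at 50% or more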;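 further: 0 = median of the neutral control wells; tested in H4 reporter cells; numbers are from one replicate; inactives centre near -14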
BJeLR viability: MLPCN primary cell-based screen for lethality selective to Ras in HRASV12 cells | 0.17% of 300,000 active | inhibition, % (no concentration beside the values) | BJeLR (HRASV12) viability, CellTiter-Glo ATP luminescence, 48 h; reference of the scale not given here;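 active means replicate mean above 50%; inconclusive means above 50% but judged a plate artefact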;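 further: 50 nL library stock added to about 25 µL; numbers are from one replicate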
Mtb hypoxia rep growth: also measured in Mtb hypoxia rep; calls as there; growth inhibition, %; measured here: M. tuberculosis growth (absorbance);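 0% = vehicle and 100% = reference antibiotic; read after six days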
The depositor's hits bear a star.

For CC(C)(C#N)Nc1ccccc1 the results were Bead autofluor 11338, RN4220 kill 5.3, ugtP null kill 14, Mtb hypoxia rep 3, PrP UTR inh -16, BJeLR viability -6 and Mtb hypoxia rep growth 3.
CCn1nc(C)c(CN2CCN(Cc3cccc(OC)c3)C(CCO)C2)c1C (centres undefined) was read as Bead autofluor 4068, RN4220 kill 3.4, ugtP null kill -2, Mtb hypoxia rep 1, PrP UTR inh -22, BJeLR viability 6 and Mtb hypoxia rep growth 18.
Fc1ccc2c(c1)nnn2C1CCN(Cc2nnnn2C2CCCCC2)CC1 was read as Bead autofluor 3643, RN4220 kill 3.9, ugtP null kill -1, Mtb hypoxia rep 11, PrP UTR inh -15, BJeLR viability 6 and Mtb hypoxia rep growth 12.
`CSc1nnc(-c2ccc(F)cc2)o1` gave Bead autofluor 9661, RN4220 kill -1.3, ugtP null kill -5, Mtb hypoxia rep 2, PrP UTR inh -8, BJeLR viability -7 and Mtb hypoxia rep growth 8.
`CCOC(=O)C1=C(C)N(C)C(=O)NC1c1cccc2ccccc12` (centres undefined) gave Bead autofluor 3593, PrP UTR inh -12 and BJeLR viability -2.
For CC1(C)C(=O)OC(/C=C\c2cccc([N+](=O)[O-])c2)C(C)(C)C1=O (centres undefined) the results were Bead autofluor 4905, RN4220 kill 2.1, ugtP null kill -2, Mtb hypoxia rep -2, PrP UTR inh -15, BJeLR viability -2 and Mtb hypoxia rep growth 8.
`CCOc1ccccc1OCC(=O)Nc1cccc(S(=O)(=O)NC2=NCCCCC2)c1` gave Bead autofluor 3759, RN4220 kill 3.2, ugtP null kill 3, Mtb hypoxia rep 4, PrP UTR inh -21 and Mtb hypoxia rep growth 7.
CCS(=O)(=O)N1Cc2ccccc2CC1C(=O)N(C)Cc1ccc(OC)cc1OC (centres undefined) was read as Bead autofluor 6701, RN4220 kill 2.2, ugtP null kill -1, Mtb hypoxia rep 0, PrP UTR inh -2, BJeLR viability -6 and Mtb hypoxia rep growth 2.
COC(=O)c1ccc(OCCOc2ccc(C(=O)OC)cc2)cc1 was read as Bead autofluor 3583, RN4220 kill -1.8, ugtP null kill 8, PrP UTR inh -17 and BJeLR viability 3.
CC1CCCC(NC(=O)C2CCN(C(=O)Nc3ccccc3)CC2)C1C (centres undefined) was read as Bead autofluor 4773, RN4220 kill 1.9, ugtP null kill 2, Mtb hypoxia rep 10, PrP UTR inh -36, BJeLR viability -1 and Mtb hypoxia rep growth -3.
`CN(C(=O)COC(=O)c1ccc2c(c1)NC(=O)CS2)C1CCS(=O)(=O)C1` (centres undefined) gave Bead autofluor 7195, RN4220 kill 0.3, ugtP null kill 15, Mtb hypoxia rep 11, PrP UTR inh -14, BJeLR viability 3 and Mtb hypoxia rep growth 13.
Cc1cccc(S(=O)Cc2ccc(C(=O)N3CCOCC3)o2)c1 (centres undefined) was read as Bead autofluor 5346, RN4220 kill 6.8, ugtP null kill 7, Mtb hypoxia rep 6, PrP UTR inh -6, BJeLR viability -9 and Mtb hypoxia rep growth 8.
For COc1cc(C=NNC(=O)c2cc(C3CC3)[nH]n2)cc(OC)c1OC the results were RN4220 kill -5.3, ugtP null kill 6, Mtb hypoxia rep 21 and Mtb hypoxia rep growth 10.
For COc1ccc(-c2cc(C)no2)cc1S(=O)(=O)N1CCN(c2ccc([N+](=O)[O-])cc2)CC1 the results were Bead autofluor 5137, RN4220 kill 1.8, ugtP null kill 4, Mtb hypoxia rep 7, PrP UTR inh -24, BJeLR viability 10 and Mtb hypoxia rep growth 6.
For C/C(=N\NC(=O)c1ccc2c(c1)OCO2)c1ccc(C(=O)O)s1 the results were Bead autofluor 4345, PrP UTR inh -35 and BJeLR viability 4.

Molecules from the list above with fluorine:
Fc1ccc2c(c1)nnn2C1CCN(Cc2nnnn2C2CCCCC2)CC1 was read as Bead autofluor 3643, RN4220 kill 3.9, ugtP null kill -1, Mtb hypoxia rep 11, PrP UTR inh -15, BJeLR viability 6 and Mtb hypoxia rep growth 12.
`CSc1nnc(-c2ccc(F)cc2)o1` gave Bead autofluor 9661, RN4220 kill -1.3, ugtP null kill -5, Mtb hypoxia rep 2, PrP UTR inh -8, BJeLR viability -7 and Mtb hypoxia rep growth 8.

(list continues)
CCN1CCCC(CO)(Cc2ccccc2)C1 (centres undefined) was read as Bead autofluor 4523, RN4220 kill 4.5, ugtP null kill 12, Mtb hypoxia rep -2, PrP UTR inh -10, BJeLR viability 10 and Mtb hypoxia rep growth -3.
O=C(Nc1ccccc1C(=O)N1CCCCCC1)c1ccc(F)cc1 was read as Bead autofluor 4071, RN4220 kill 4.3, ugtP null kill 7, Mtb hypoxia rep 8, PrP UTR inh -24, BJeLR viability -3 and Mtb hypoxia rep growth -1.
`ON=C(c1ccc(Cl)cc1)C1CC1c1ccccc1` (centres undefined) gave RN4220 kill 3.1, ugtP null kill 11, Mtb hypoxia rep 14 and Mtb hypoxia rep growth 11.
COc1ccc(/C(N)=N/OC(=O)c2cccs2)cc1 was read as Bead autofluor 4176, RN4220 kill 6.9, ugtP null kill 18, Mtb hypoxia rep -2, PrP UTR inh -111, BJeLR viability 1 and Mtb hypoxia rep growth 6.
Screening COC(=O)c1ccc(C23CC4(C2)C(CN(Cc2cccnc2)C4c2ccccc2)C3c2ccccc2)cc1 (centres undefined) returned RN4220 kill -5.5, ugtP null kill 1, Mtb hypoxia rep -8 and Mtb hypoxia rep growth -8.
For O=C1Nc2ccccc2/C1=N/c1sc2c(c1C(=O)NCCc1ccccc1)CCCC2 the results were Bead autofluor 2274, PrP UTR inh -39 and BJeLR viability -9.
For CC(C#N)OC(=O)c1cccnc1SCC(=O)Nc1ccc2c(c1)OCO2 (centres undefined) the results were Bead autofluor 2973, RN4220 kill 3.0, ugtP null kill 3, Mtb hypoxia rep 9, PrP UTR inh -5 and Mtb hypoxia rep growth 7.
`CCOc1ccc(Nc2nc(Cc3nnc(SCC(N)=O)o3)cs2)cc1` gave Bead autofluor 9989, RN4220 kill 2.9, ugtP null kill 9, Mtb hypoxia rep 10, PrP UTR inh -16, BJeLR viability -4 and Mtb hypoxia rep growth 6.
For Cc1c(Nc2ncnc3nc[nH]c23)c(=O)n(-c2ccccc2)n1C the results were Bead autofluor 4554, RN4220 kill 6.9, ugtP null kill 9, Mtb hypoxia rep 2, PrP UTR inh -2, BJeLR viability -2 and Mtb hypoxia rep growth 5.
`CCOC(=O)C1=C(C)NC(SCC(=O)O)=NC1c1ccccc1` (centres undefined) gave RN4220 kill 4.5, ugtP null kill -13, Mtb hypoxia rep 13, BJeLR viability 2 and Mtb hypoxia rep growth 7.
O=C(O)c1cc(NS(=O)(=O)c2cccc3nsnc23)cc(C(=O)O)c1 was read as Bead autofluor 2905, RN4220 kill 3.5, ugtP null kill 0, Mtb hypoxia rep -4, PrP UTR inh -27, BJeLR viability -20 and Mtb hypoxia rep growth 19.
Screening COc1cc(C(C)=O)ccc1OCC(O)CN1CCN(S(=O)(=O)c2ccccc2)CC1 (centres undefined) returned Bead autofluor 4482, RN4220 kill 0.1, ugtP null kill -5, PrP UTR inh -8 and BJeLR viability 7.
`CCOc1ccc(-c2c(C(=O)N/N=C/c3c[nH]c4ccccc34)nnn2-c2nonc2N)cc1` gave Bead autofluor 4216, PrP UTR inh 19 and BJeLR viability -9.
`COc1ccccc1NC(=O)C(C)OC(=O)CCC1CCCCC1` (centres undefined) gave Bead autofluor 5706, RN4220 kill 5.5, ugtP null kill 7, Mtb hypoxia rep 0, PrP UTR inh -23, BJeLR viability -10 and Mtb hypoxia rep growth -3.
Screening CN1CCN(Cc2ccc(OC(F)(F)F)cc2)CC1 returned RN4220 kill 9.9, ugtP null kill 1, Mtb hypoxia rep -4, PrP UTR inh -13, BJeLR viability 3 and Mtb hypoxia rep growth 3.
Screening CC1(C)CC[C@]2(C(=O)O)CC[C@]3(CO)C(=CCC4[C@@]5(C)CC(O)C(O)[C@@](C)(C(=O)O)C5CC[C@]43C)C2C1 (some centres undefined) returned RN4220 kill 6.6, ugtP null kill 2, Mtb hypoxia rep 14 and Mtb hypoxia rep growth 6.
Cc1ccc(S(=O)(=O)NCCNC(C)c2ccc(Br)cc2)cc1 (centres undefined) was read as Bead autofluor 3802, RN4220 kill 2.6, ugtP null kill -1, Mtb hypoxia rep 3, PrP UTR inh 4 and Mtb hypoxia rep growth 4.
Clc1ccc(Oc2cccc(/C=N/n3cnnc3)c2)cc1 was read as Bead autofluor 3076, PrP UTR inh -26 and BJeLR viability 1.
COc1ccc(CCN2CC(C(=O)NCc3c(C)n[nH]c3C)CCC2=O)cc1 (centres undefined) was read as Bead autofluor 6000, RN4220 kill -0.4, ugtP null kill 1, Mtb hypoxia rep 4, PrP UTR inh 0, BJeLR viability -10 and Mtb hypoxia rep growth 13.
`CCc1ccccc1NC(=O)/C(=C/c1ccccc1)c1ccccc1` gave Bead autofluor 10568, RN4220 kill -1.1, ugtP null kill 16, Mtb hypoxia rep 2, PrP UTR inh -3, BJeLR viability 4 and Mtb hypoxia rep growth 14.
`CCCc1cc(=O)[nH]c(SCC(=O)c2cc(C)n(C3CC3)c2C)n1` gave Bead autofluor 2353, RN4220 kill 6.3, ugtP null kill -10, PrP UTR inh -34 and BJeLR viability 4.
For CCN(CC)CC(C)CNC(=O)CC(C(=O)N1CCc2ccccc21)n1ccnc1 (centres undefined) the results were Bead autofluor 11413, RN4220 kill 3.3, ugtP null kill 10, Mtb hypoxia rep 4, PrP UTR inh -16, BJeLR viability 2 and Mtb hypoxia rep growth 0.
For COc1ccc(NC(=O)CN2C(=O)NC(c3ccccc3)(c3ccccc3)C2=O)cc1 the results were Bead autofluor 5498, RN4220 kill 0.1, ugtP null kill 5, Mtb hypoxia rep 6, PrP UTR inh -26, BJeLR viability 1 and Mtb hypoxia rep growth 1.
Screening COc1ccc(-c2[nH]ncc2CNC(C)c2ccccc2Cl)cc1F (centres undefined) returned Bead autofluor 5198, RN4220 kill 3.0, ugtP null kill -2, Mtb hypoxia rep -1, PrP UTR inh -30, BJeLR viability 7 and Mtb hypoxia rep growth 0.
For CC(=O)c1ccc(NC(=O)C(Cc2ccccc2)NC(=O)c2ccco2)cc1 (centres undefined) the results were Bead autofluor 4871, RN4220 kill -0.7, ugtP null kill 2, PrP UTR inh -7 and BJeLR viability 2.
CCOC(=O)c1ccc2nc(Nc3nc4ccc(F)cc4s3)sc2c1 was read as Bead autofluor 2091, RN4220 kill -2.3, ugtP null kill -5, Mtb hypoxia rep 1, PrP UTR inh 16, BJeLR viability -4 and Mtb hypoxia rep growth -8.
For O=C(COc1cccc2ccccc12)N/N=C/c1ccco1 the results were Bead autofluor inconclusive, PrP UTR inh -14 and BJeLR viability 1.
`CCCn1nnc(NC(=O)c2ccccc2Br)n1` gave Bead autofluor 7928, RN4220 kill 6.7, ugtP null kill 5, Mtb hypoxia rep 11, PrP UTR inh -29, BJeLR viability -4 and Mtb hypoxia rep growth 9.

Reprinted from above, six compounds:
For COc1ccc(NC(=O)CN2C(=O)NC(c3ccccc3)(c3ccccc3)C2=O)cc1 the results were Bead autofluor 5498, RN4220 kill 0.1, ugtP null kill 5, Mtb hypoxia rep 6, PrP UTR inh -26, BJeLR viability 1 and Mtb hypoxia rep growth 1.
Screening COc1ccc(-c2[nH]ncc2CNC(C)c2ccccc2Cl)cc1F (centres undefined) returned Bead autofluor 5198, RN4220 kill 3.0, ugtP null kill -2, Mtb hypoxia rep -1, PrP UTR inh -30, BJeLR viability 7 and Mtb hypoxia rep growth 0.
For CC(=O)c1ccc(NC(=O)C(Cc2ccccc2)NC(=O)c2ccco2)cc1 (centres undefined) the results were Bead autofluor 4871, RN4220 kill -0.7, ugtP null kill 2, PrP UTR inh -7 and BJeLR viability 2.
CCOC(=O)c1ccc2nc(Nc3nc4ccc(F)cc4s3)sc2c1 was read as Bead autofluor 2091, RN4220 kill -2.3, ugtP null kill -5, Mtb hypoxia rep 1, PrP UTR inh 16, BJeLR viability -4 and Mtb hypoxia rep growth -8.
For O=C(COc1cccc2ccccc12)N/N=C/c1ccco1 the results were Bead autofluor inconclusive, PrP UTR inh -14 and BJeLR viability 1.
`CCCn1nnc(NC(=O)c2ccccc2Br)n1` gave Bead autofluor 7928, RN4220 kill 6.7, ugtP null kill 5, Mtb hypoxia rep 11, PrP UTR inh -29, BJeLR viability -4 and Mtb hypoxia rep growth 9.

Compound activity as filed in PubChem BioAssay.
